PD-1 reverse act: activators reversing PD-1 mediated T-cell inhibition; 29,000 tested, under 10 active; activation, % (concentration not given with the values); primary human CD4 T cells, PD-L1 beads, CellTiter-Glo 96 h;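 active = replicate mean of 50% or more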;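 also: 0% = median vehicle wells and 100% = positive control; 100 nL library stock added to about 50 µL; numbers are from one replicate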
Hedgehog inh: Sonic Hedgehog pathway inhibition; 22,000 compounds, 2.1% hits; Shh-LIGHT2 Gli-luciferase reporter, 30 h; inhibition, % (test concentration not listed);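 active = replicate mean of 65% or more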;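 also: pathway switched on by Shh-conditioned medium diluted 1 in 25 in low serum; 100 nL library stock added to about 40 µL; 0% = median of neutral wells and 100% = positive control level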
MITF inhib: MITF inhibition | inhibition, % (test concentration not listed) | AID 2240 | 37,000 compounds, 0.28% hits | TRPM1 promoter luciferase, luminescence, 24 h;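 active = most replicates at 85% or more, or half of them and the mean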;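 also: human melanocyte line stably carrying TRPM1 promoter luciferase reporter; 0% = vehicle wells and 100% = a positive control; the first replicate is given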
YB-1 expression: YB-1 expression inhibition; U2OS, qRT-PCR YB-1 vs CDIP delta delta Cp, 16 h; hits give high values; zero = DMSO, each unit about twofold; delta delta Cp (YB-1 minus CDIP) (no concentration beside the values); 30,000 compounds, 0.37% hits; AID 434959;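 active = delta delta Cp rounded down to an integer at or above 3, about 3 SD of DMSO wells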;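 also: higher means less YB-1 transcript or more CDIP transcript relative to DMSO; stock transfer was 100 nL into about 100 µL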
The depositor's hits bear a star; x = no result given. Some of the compounds tested (hit frequency here may not be typical).

SMILES	PD-1 reverse act	Hedgehog inh	MITF inhib	YB-1 expression
O=C1c2ccccc2C(=O)N1CCN1CCCCC1	6.5	-11	-4	-0.12
C[C@@H]1CN([C@@H](C)CO)C(=O)c2cc(NC(=O)Nc3ccc(C(F)(F)F)cc3)ccc2O[C@H]1CN(C)S(=O)(=O)c1cn(C)cn1	-1.6	1	-21	-0.72
COc1cccc(S(=O)(=O)NCC(=O)N2CCCCC2C)c1 (centres undefined)	-0.1	x	6	x
COc1ccc(NC(=O)Nc2ccc3c(c2)C(=O)N([C@@H](C)CO)C[C@@H](C)[C@H](CN(C)Cc2ccc(C(=O)O)cc2)O3)cc1	2.1	x	5	0.15
CC1(C)CC(n2c(SCC(N)=O)nc3c(c2=O)C2(CCCCC2)Cc2ccccc2-3)CCO1 (centres undefined)	-4.5	x	26	x
COc1ccc(NC(=O)N(C)C[C@@H]2Oc3ccc(NC(=O)Nc4cccc5ccccc45)cc3C(=O)N([C@@H](C)CO)C[C@@H]2C)cc1	-0.9	-27	7	-0.3
Cc1ccc(S(=O)(=O)Nc2ccc3c(c2)CC(=O)N([C@@H](C)CO)C[C@H](C)[C@@H](CN(C)C(=O)Nc2c(C)noc2C)O3)cc1	0.4	12	-2	-0.11
Cc1cc(C)c2c(=O)[nH]c(SCC(=O)c3ccc(F)c(C)c3)nc2n1	1.9	x	-18	x
C[C@@H]1CN([C@@H](C)CO)C(=O)c2cc(NC(=O)CCC(F)(F)F)ccc2O[C@@H]1CN(C)C	0.8	44	1	0.054
COc1ccccc1NC(=O)CN(C)S(=O)(=O)c1cc(C)ccc1OC	0.4	x	-9	x
CNCCNS(=O)(=O)c1cccc2cnccc12	-0.8	-23	-29	0.065
C[C@H]1CN([C@@H](C)CO)C(=O)Cc2cc(NS(C)(=O)=O)ccc2O[C@@H]1CN(C)Cc1ccccc1	1.2	-15	-8	-0.26
O=C(NCC(O)c1ccccc1)c1cccc(S(=O)(=O)N2CCOCC2)c1 (centres undefined)	1.8	x	-32	x
CNC(=O)Nc1ccc(C2SCCS2)cc1	1.5	x	-16	-0.54
CS(=O)(=O)N(CC(=O)Nc1ccc(Br)cc1)c1cccc(C(F)(F)F)c1	-4.8	x	9	x
CN(Cc1nc(-c2cccc([N+](=O)[O-])c2)no1)S(=O)(=O)c1ccc(Cl)cc1	1.7	x	14	x
CCn1c(SCC(=O)Nc2ccc(C)c(C)c2)nnc1-c1ccncc1	1.1	x	-5	x
S=C(NC1CCCCC1)N1CCCCC1	0.3	-17	-10	-0.15
N=c1sc2ccccc2n1C(=O)OCc1ccccc1	0.0	-6	23	-0.55
Cc1noc(C)c1NC(=O)N(C)C[C@@H]1Oc2ccc(NS(C)(=O)=O)cc2C(=O)N([C@H](C)CO)C[C@H]1C	-0.1	-17	1	-0.082
O=C(Cn1ccc([N+](=O)[O-])n1)Nc1cc(F)ccc1F	0.7	x	-12	x
COc1ccc(NC(=O)Nc2ccc3c(c2)C(=O)N([C@@H](C)CO)C[C@@H](C)[C@@H](CN(C)S(=O)(=O)c2ccccc2)O3)cc1	2.5	-25	-6	0.42
C[C@H](CO)N1C[C@H](C)[C@H](CN(C)C(=O)Nc2ccc3c(c2)OCO3)Oc2c(NC(=O)Nc3ccccc3)cccc2C1=O	-1.6	-72	-6	-0.24
Cc1noc(C)c1NC(=O)Nc1ccc2c(c1)CC(=O)N([C@H](C)CO)C[C@@H](C)[C@@H](CN(C)C(=O)NC1CCCCC1)O2	0.3	-19	-7	0.083
C[C@@H]1CN([C@@H](C)CO)C(=O)c2cccc(NC(=O)C3CCCCC3)c2O[C@@H]1CN(C)C(=O)Nc1ccccc1	x	x	-1	-0.077
Cc1noc(C)c1S(=O)(=O)Nc1ccc2c(c1)C(=O)N([C@H](C)CO)C[C@H](C)[C@@H](CN(C)Cc1ccncc1)OCCCC[C@@H](C)O2	0.5	x	-12	-0.31
N#Cc1c(NC(=O)c2ccc(COc3ccccc3Cl)o2)sc2c1CCCC2	3.0	x	6	x
Nc1cccc(-c2cc3c(Oc4cccc(O)c4)ncnc3[nH]2)c1	-1.6	-8	-63	0.44
C[C@H]1CN([C@@H](C)CO)C(=O)c2cc(NC(=O)Nc3cccc4ccccc34)ccc2O[C@@H]1CN(C)Cc1ccc(C(F)(F)F)cc1	-3.1	-58	11	0.22
O=C(O)CCC/C=C\C[C@@H]1[C@@H](/C=C/[C@@H](O)COc2cccc(C(F)(F)F)c2)[C@H](O)C[C@@H]1O	3.0	-34	6	0.33
O=C(NCC1CCCO1)c1cc(S(=O)(=O)N2CCCC2)c(Cl)cc1Cl (centres undefined)	0.1	x	-1	x
C[C@@H]1CN([C@H](C)CO)C(=O)Cc2cc(NC(=O)CCN3CCOCC3)ccc2O[C@@H]1CN(C)Cc1ccccc1	1.1	x	-6	-0.16
COc1ccc(N(CC(=O)O)S(C)(=O)=O)cc1OC	2.1	x	-6	x
COc1ccc(NC(=O)N(C)C[C@@H]2Oc3ccc(NC(=O)Nc4c(C)noc4C)cc3C(=O)N([C@@H](C)CO)C[C@H]2C)cc1	0.6	-7	2	-0.16
C[C@@H]1CN([C@H](C)CO)C(=O)Cc2cc(NS(=O)(=O)c3ccc(Cl)cc3)ccc2O[C@@H]1CN(C)CC1CCCCC1	-7.3	-10	11	0.081
CC(=O)Nc1ccccc1NC(=O)COc1ccc(Cl)cc1Cl	-0.3	x	9	x
CCCN1CCN(c2ncnc3scc(C4COc5ccccc5O4)c23)CC1 (centres undefined)	-3.5	x	-8	x
C[C@H]1CN([C@@H](C)CO)C(=O)Cc2cc(NC(=O)Cc3cn(C)c4ccccc34)ccc2O[C@H]1CN(C)Cc1ccc(C(=O)Nc2ccccc2N)cc1	-2.3	x	19	-0.55
CC(C)(C)C(=O)Nc1ccn([C@H]2C[C@H](O)[C@@H](COC(=O)C(C)(C)C)O2)c(=O)n1	2.2	1	-21	0.017
C[C@@H]1CN([C@@H](C)CO)C(=O)c2cc(NS(=O)(=O)c3ccc(Cl)cc3)ccc2O[C@@H]1CN(C)C(=O)NC1CCCCC1	-1.0	15	-3	0.16
CC(C)NC(=O)N(C)C[C@H]1Oc2c(NC(=O)C3CCOCC3)cccc2C(=O)N([C@H](C)CO)C[C@H]1C	1.8	-9	1	-0.11
COC(=O)c1ccccc1NC(=O)CSc1nnnn1-c1ccccc1OC	2.3	x	46	x
COc1ccc(CN(C)C[C@H]2Oc3ccc(NC(=O)CCC(F)(F)F)cc3CC(=O)N([C@H](C)CO)C[C@H]2C)cc1	-0.2	x	-3	-1.3
c1ccc(CN(CCN(Cc2ccccn2)Cc2ccccn2)Cc2ccccn2)nc1	-51	-181	88*	-0.37
COc1ccc(Cl)cc1NC(=O)CSc1nc2ccccc2n1-c1ccccc1	-0.4	x	41	x
C[C@H](CO)N1C[C@H](C)[C@H](CN(C)C(=O)Nc2ccccc2)Oc2ccc(NC(=O)CCCCCC(=O)Nc3ccccc3N)cc2C1=O	2.0	x	-19	-0.044
Cn1nnnc1SCC(=O)Nc1ccc2ccccc2c1	-0.7	x	-30	x
C[C@H](CO)N1C[C@H](C)[C@@H](CN(C)Cc2ccc(-c3ccccc3)cc2)Oc2c(NC(=O)c3cnccn3)cccc2C1=O	x	26	1	0.29
CNC(=O)[C@H]1O[C@@H](n2cnc3c(NCc4cccc(I)c4)ncnc32)C(O)[C@H]1O (some centres undefined)	x	-34	0	0.12
COc1ccc(NC(=O)N(C)C[C@@H]2Oc3ccc(NC(=O)Nc4ccccc4)cc3C(=O)N([C@@H](C)CO)C[C@@H]2C)cc1	4.7	x	1	0.098
COc1ccc(NC(=O)Nc2ccc3c(c2)C(=O)N([C@@H](C)CO)C[C@H](C)[C@H](CN(C)Cc2ccc(Oc4ccccc4)cc2)O3)cc1	-0.3	x	-4	0.13
C[C@@H]1CN([C@@H](C)CO)C(=O)Cc2cc(NC(=O)Nc3ccc(C(F)(F)F)cc3)ccc2O[C@@H]1CN(C)Cc1ccc(Oc2ccccc2)cc1	-0.9	15	5	0.32
COc1ccc(S(=O)(=O)N(C)C[C@H]2Oc3ccc(NS(=O)(=O)c4c(C)noc4C)cc3C(=O)N([C@H](C)CO)C[C@H]2C)cc1	-0.9	13	-6	-0.11
Cc1ccc(S(=O)(=O)NC(=O)CSc2nc3ccccc3s2)cc1	0.5	x	19	x
C[C@@H]1CN([C@@H](C)CO)C(=O)c2cc(NC(=O)CCN3CCOCC3)ccc2O[C@H]1CN(C)C(=O)Nc1cccc2ccccc12	-0.3	-36	18	-0.39
C[C@H](CO)N1C[C@H](C)[C@H](CN(C)S(=O)(=O)c2ccc(Cl)cc2)Oc2ccc(NC(=O)Nc3ccc4c(c3)OCO4)cc2CC1=O	-1.8	43	27	-0.047
N#Cc1cc2c(nc1SCC(=O)Nc1ccccc1C(F)(F)F)CCCCC2	1.8	x	-8	x
C[C@@H]1CN([C@@H](C)CO)C(=O)c2cc(NC(=O)CCC(F)(F)F)ccc2O[C@@H]1CN(C)C(=O)Nc1ccc2c(c1)OCO2	-0.2	x	-17	0.0034
Cc1ccc(S(=O)(=O)N(C)C[C@@H]2Oc3ccc(NS(=O)(=O)c4ccc(Cl)cc4)cc3C(=O)N([C@H](C)CO)C[C@@H]2C)cc1	-1.8	24	10	0.21
O=C(O)C1=CCCN(CCON=C(c2ccccc2)c2ccccc2)C1	x	-25	-7	2.5

The results go on.
SMILES	PD-1 reverse act	Hedgehog inh	MITF inhib	YB-1 expression
CCCC[C@@H](C)/C=C(C)/C=C(\C)C(=O)NC1=C[C@@](O)(/C=C/C=C/C=C/C(=O)NC2C(=O)CCC2=O)[C@@H]2O[C@@H]2C1=O	-57	51	-12	0.4
C[C@@H]1CN([C@@H](C)CO)C(=O)c2cc(NS(C)(=O)=O)ccc2O[C@H]1CN(C)S(=O)(=O)c1cccs1	0.1	20	2	-0.75
C[C@H]1CN([C@@H](C)CO)C(=O)c2cc(NC(=O)NC3CCCCC3)ccc2O[C@H]1CN(C)Cc1ccc(Oc2ccccc2)cc1	-1.0	8	4	1.8
O=c1c(O)cccc2cc(O)c(O)c(O)c12	x	-249	-19	-0.069
NC(=O)C1=CN(Cc2ccccc2)CCC1C(F)(F)F (centres undefined)	-0.4	-11	-6	-0.31
CC#C[C@]1(O)CC[C@H]2[C@@H]3CCC4=CC(=O)CCC4=C3[C@@H](c3ccc(N(C)C)cc3)C[C@@]21C	x	-40	2	-0.0099
C[C@H](CO)N1C[C@H](C)[C@H](CN(C)Cc2ccc3c(c2)OCO3)Oc2c(NC(=O)C3CCOCC3)cccc2C1=O	1.8	-9	-11	0.14
C[C@@H]1CN([C@H](C)CO)C(=O)Cc2cc(NC(=O)CCC(F)(F)F)ccc2O[C@@H]1CN(C)Cc1ccncc1	-2.0	-36	-12	0.068
C[C@H]1CN([C@@H](C)CO)C(=O)c2cccc(NC(=O)C3CCOCC3)c2O[C@H]1CN(C)Cc1ccc(-c2ccccc2)cc1	0.0	-8	-6	-0.11
C[C@H]1CN([C@@H](C)CO)C(=O)c2cccc(NC(=O)c3nc4ccccc4s3)c2O[C@H]1CN(C)S(=O)(=O)c1ccc(Cl)cc1	2.5	7	-4	-0.16
Cn1c(SCc2nc3ccccc3s2)nnc1-c1cccs1	-0.7	x	-43	x
Cc1ccc(S(=O)(=O)N(C)C[C@@H]2Oc3ccc(NC(=O)Cc4cn(C)c5ccccc45)cc3CC(=O)N([C@@H](C)CO)C[C@@H]2C)cc1	x	16	35	-0.044
Cc1ccc(-c2nc(S(=O)(=O)c3ccc(F)cc3)c(NCc3ccco3)o2)cc1	3.2	x	-20	x
Cc1ccc(S(=O)(=O)N(C)C[C@H]2Oc3ccc(NC(=O)Nc4cccc5ccccc45)cc3C(=O)N([C@H](C)CO)C[C@@H]2C)cc1	x	40	8	0.15
COc1ccc(NC(=O)N(C)C[C@@H]2Oc3ccc(NS(=O)(=O)c4ccccc4)cc3C(=O)N([C@H](C)CO)C[C@H]2C)cc1	1.3	x	0	-0.37
